Bioassay records deposited in PubChem BioAssay by several laboratories.
RecA splice inh: inhibitors of M. tuberculosis RecA intein splicing | inhibition, %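 (about 9 µM by stock and volumes)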 | cell-free RecA intein splicing, fluorescence | P9WHJ3 | 290,000 tested, 0.75% active; in the data active means inhibition above about 30%; inconclusive means no clear call, values can overlap the other calls;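 further: 0% = vehicle wells and 100% = reference inhibitor control wells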
Target sequence (P9WHJ3 whole entry, looked up, canonical isoform): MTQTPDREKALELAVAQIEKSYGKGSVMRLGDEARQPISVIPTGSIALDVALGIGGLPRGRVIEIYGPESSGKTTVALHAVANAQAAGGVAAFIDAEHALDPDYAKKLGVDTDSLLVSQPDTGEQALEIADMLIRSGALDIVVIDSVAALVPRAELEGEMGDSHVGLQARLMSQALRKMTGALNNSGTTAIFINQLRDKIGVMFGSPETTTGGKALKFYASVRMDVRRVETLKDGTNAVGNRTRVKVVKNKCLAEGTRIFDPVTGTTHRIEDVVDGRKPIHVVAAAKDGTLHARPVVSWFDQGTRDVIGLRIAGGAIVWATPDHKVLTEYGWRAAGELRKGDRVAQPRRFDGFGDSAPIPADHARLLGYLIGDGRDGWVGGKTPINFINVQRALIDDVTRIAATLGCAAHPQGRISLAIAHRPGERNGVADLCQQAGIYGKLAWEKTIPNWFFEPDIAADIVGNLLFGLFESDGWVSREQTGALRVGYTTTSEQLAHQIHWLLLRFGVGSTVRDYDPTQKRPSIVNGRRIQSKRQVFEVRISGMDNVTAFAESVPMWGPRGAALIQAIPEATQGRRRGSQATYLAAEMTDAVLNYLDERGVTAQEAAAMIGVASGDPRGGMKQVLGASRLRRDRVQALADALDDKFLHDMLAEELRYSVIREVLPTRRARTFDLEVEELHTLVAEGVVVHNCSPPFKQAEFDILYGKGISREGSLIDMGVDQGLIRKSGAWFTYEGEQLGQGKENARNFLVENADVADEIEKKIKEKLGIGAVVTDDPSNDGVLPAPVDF
Arbovirus inh: antivirals against arbovirus infection | arbovirus infection cell-based antiviral screen | inhibition, % at 10 µM | 200,000 tested, 0.37% active;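 active means inhibition from about 30%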;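 further: bluetongue infection of BSR cells; cell survival read as ATP light after 72 h; 0% = infected wells without compound and 100% = uninfected wells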
Mtb growth: M. tuberculosis H37Rv growth inhibitors, H37Rv strain (AID 1626); M. tuberculosis H37Rv growth inhibition; higher % means a stronger effect; 220,000 tested, 0.95% active; inhibition, % at 10 µM, or IC50 in µM where a hit was titrated;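 active means confirmed in a dose series; inconclusive means inhibition above 80% but not taken into the dose series; inactive means below 80% or under 30% at every dose of the series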;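 further: bacteria incubated seven days before Alamar blue readout; 0% = bacteria only wells and 100% = bacteria with antibiotic wells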
YopH PTP inh: blocks Yersinia enterocolitica YopH tyrosine phosphatase | fluorescence Ex485/Em525 | inhibition, %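 (about 10 µM by stock and volumes)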 | 140,000 tested, 0.16% active;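 active means inhibition of 50% or more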;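 further: controls were vehicle for no effect and minimum signal wells for full effect; inactives centre near -20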
Mtb bLac sens: beta-lactam sensitization of Mtb H37Rv; M. tuberculosis H37Rv growth with meropenem, percent inhibition; hits of this screen are not shown here; inhibition, % at 25 µM; 330,000 tested, 0.27% active;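 active means about 74% or more and at least 40 points above the plate without the antibiotic, then above 30% in a dose series; inconclusive means first-round hits that could not be retested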;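 further: growth measured after seven days incubation then overnight dye step; 0% = bacteria only wells and 100% = bacteria with antibiotic; twin plates without the antibiotic show which effects depend on it; some results filed as inactive read as strong as hits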
Arbovirus inh repeat: also measured in Arbovirus inh; calls as there; inhibition, %; measured here: 10K subset replicate screen; many hits read low in the repeat;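 first of two repeat runs on a subset; 0% = infected and 100% = uninfected wells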
The depositor's hits bear a star; u = inconclusive; x = not tested or not shown; & = joins results of further samples. Not all compounds are listed; count on the stated rates, not on these rows.

SMILES | RecA splice inh | Arbovirus inh | Mtb growth | YopH PTP inh | Mtb bLac sens | others
Cc1cc(CN(C)C(=O)c2ccc(OC3CCN(Cc4ccccn4)CC3)cc2)on1 | -0.2 | x | x | x | 0
COc1ccc(N2CCN(C(=O)CCNS(=O)(=O)c3ccccc3)CC2)cc1 | -4.2 | -2 | -2% | x | -1
COc1cc(NC(=O)COC(=O)/C=C/c2ccc(O)c(OC)c2)cc(OC)c1 | 2.8 | 4 | 30% | x | 10
O=C(CSCCN1C(=O)c2ccccc2C1=O)Nc1ccc2ccccc2c1 | -6.5 | -1 | u | -17 | 66
Cc1ccc(C(=O)NCC(=O)OCC(=O)NC(C)c2ccccc2)s1 (stereo not drawn) | 0.6 | 4 | 7% | x | 0
Cc1cc(-n2ccnc2)n2c(nc3ccccc32)c1C#N | -14 | 0 | -4% | -8 | -1
O=C(c1ccc(N2CCOCC2)c([N+](=O)[O-])c1)N1CCN(Cc2ccccc2)CC1 | -0.8 | x | x | x | 0
CCn1nnnc1NCc1ccc(OCc2ccc(F)cc2Cl)c(OC)c1 | 3.8 | -3 | 4% | x | -3
COc1ccc(/C=C/C(=O)NCCSCc2ccco2)cc1OC | 1.4 | x | -2% | x | -5
CCCCc1ccc(-c2ccc(Br)cc2)nc1 | 1.3 | 4 | -2% | -17 | 9
COC(=O)c1ccc(NC(=O)CSc2ccccc2)cc1 | -1.2 | 7 | 58% | -27 | 34
CCOc1ccc(C(=O)NN2CCOCC2)cc1 | -1.7 | x | x | x | 6
c1ccc(Nc2ccccn2)nc1 | 0.9 | x | -5% | x | -3
CC(NC=O)c1nc2ccccc2n1CCc1ccccc1 (stereo not drawn) | 2.0 | x | x | x | -7
C#CCO[C@@H]1C[C@H](n2ccc(NC(=O)c3ccccc3)nc2=O)O[C@@H]1CO | 1.2 | x | -8% | x | 21
Cc1cc(C)c(-c2noc(C(=O)OC(C)(C)C)c2C(=O)OC(C)(C)C)c(C)c1 | 2.0 | 6 | -8% | -34 | -24
Cc1cc(OCC(F)(F)C(F)(F)C(F)(F)C(F)(F)C(F)(F)C(F)F)nc(N)n1 | -1.3 | 12 | 1% | -6 | 2
C#CCCOC(=O)N1C2=NC(C(=O)OC)=C(C(=O)OC)[C@@H]3N(C)c4ccccc4[C@]23C[C@H]1C(=O)OC | -0.6 | x | -5% | x | -10
Cc1ccc(C(=O)CSc2nnc3c4ccccc4nc(Cc4ccccc4)n23)cc1 | 0.1 | -10 | 2% | -22 | 0
O=C(COC(=O)c1cccc(Br)c1)Nc1cccc2c1C(=O)c1ccccc1C2=O | 0.5 | -15 | 6% | x | -7
Cc1cccc(OCC(=O)OC2CCN(C)CC2)c1 | 1.1 | -2 | 6% | -13 | 0
CCSCCOC(=O)C1=C(C)NC2=C(C(=O)CCC2)C1c1coc2ccccc2c1=O (stereo not drawn) | -1.7 | 2 | -3% | -36 | 0
Cc1nc2nc(-c3cccnc3)[nH]n2c(=O)c1C | -2.7 | -2 | x | 11 | -4
COc1ccc(CNC(=O)N2CCN(c3ccccc3OC)CC2)cc1 | 0.5 | x | x | x | -3
CCc1ccc(C(=O)CSc2nc3ccccc3c(=O)[nH]2)cc1 | 0.9 | -1 | 10% | -33 | -2

Reprinted from the part before: 6 entries, then new ones.
SMILES | RecA splice inh | Arbovirus inh | Mtb growth | YopH PTP inh | Mtb bLac sens | others
O=C(COC(=O)c1cccc(Br)c1)Nc1cccc2c1C(=O)c1ccccc1C2=O | 0.5 | -15 | 6% | x | -7
Cc1cccc(OCC(=O)OC2CCN(C)CC2)c1 | 1.1 | -2 | 6% | -13 | 0
CCSCCOC(=O)C1=C(C)NC2=C(C(=O)CCC2)C1c1coc2ccccc2c1=O (stereo not drawn) | -1.7 | 2 | -3% | -36 | 0
Cc1nc2nc(-c3cccnc3)[nH]n2c(=O)c1C | -2.7 | -2 | x | 11 | -4
COc1ccc(CNC(=O)N2CCN(c3ccccc3OC)CC2)cc1 | 0.5 | x | x | x | -3
CCc1ccc(C(=O)CSc2nc3ccccc3c(=O)[nH]2)cc1 | 0.9 | -1 | 10% | -33 | -2
CCOP(=O)(OCC)C(NC(=O)Cc1ccccc1)C(Cl)(Cl)Cl (stereo not drawn) | -2.5 | 1 | 0% | x | -4
NNc1nc(-c2ccccc2Cl)c2cc(Br)ccc2n1 | -1.7 | x | x | x | 5
Cc1ccc(S(=O)(=O)N2CCN(c3cnn(-c4ccccc4)c(=O)c3Cl)CC2)cc1 | -0.8 | -14 | 3% | -13 | 3
Nc1cc[n+](CC(=O)c2ccccc2)cc1 | 1.5 | x | x | x | -7
CC(C)(C)C(=O)[C@@H]1[C@@H]2C(=O)N(c3ccc4c(c3)OCCO4)C(=O)[C@@H]2C2c3ccccc3C=CN21 (stereo partly drawn) | 9.2 | -7 | 7% | 5 | 1
O=C(NCCCN1CCCC1)c1cc2c(Cl)nc3ccccc3c2s1 | -1.9 | -20 | 8% | x | 12
CC(Oc1cc2oc(=O)c3c(c2cc1Cl)CCCC3)C(=O)NCc1cccnc1 (stereo not drawn) | -1.5 | x | x | x | 43
COC(=O)C(C)n1cnc2c(nnn2Cc2ccc(Cl)cc2)c1=O (stereo not drawn) | -5.4 | 1 | 4% | -44 | -11
CCC(C)N1C(=O)S/C(=C/c2ccc3c(c2)n(C)c(=O)n3C)C1=O (stereo not drawn) | 3.4 | -17 | 71% | x | 84
CN(C)C(/C=C/Nc1ccc([N+](=O)[O-])cc1)=C(C#N)C#N | -1.2 | 4 | 3% | x | 1
COc1cccc(NC(=O)CN(C)C(C)C(=O)Nc2ccc(S(=O)(=O)N3CCOCC3)cc2)c1 (stereo not drawn) | -1.9 | x | 4% | x | -3
C=CCOc1cccc(C2/C(=C(/O)c3ccc(F)cc3)C(=O)C(=O)N2CCN2CCOCC2)c1 (stereo not drawn) | 3.4 | 7 | 2% | -44 | 3
COC(=O)c1ccc(NC(=O)CCN2CCCCC2)cc1 | -0.2&1.2 | 5&-3 | -6%&3% | -2&-7 | -1&-4
CC(=O)c1cc2c(cc1NS(=O)(=O)c1ccccc1C)OCO2 | -0.8 | -12 | -10% | x | -7
COc1ccc(N2CCN(C(=O)CSc3nnc4n3C(C)(C)Cc3ccccc3-4)CC2)cc1 | 3.0 | -3 | -15% | -16 | 1
Cc1ccc(S(=O)(=O)C2(C(=O)Nc3cccc(F)c3)CC2)cc1 | -1.2 | 1 | -2% | -25 | 0
COc1cc(C2C(C#N)=C(N)N(Nc3ccccc3)C3=C2C(=O)CC(C)(C)C3)ccc1OCc1cccc(F)c1 (stereo not drawn) | 9.6 | -19 | u | -22 | 99
Cc1sc(NC(=O)C(C)C)c(C(=O)Nc2ccccc2)c1C | -1.5 | -10 | 18% | -15 | 23
CCOc1ccc(NC(=O)CNC(=O)c2cccs2)cc1 | -2.2 | 2 | 0% | x | -4
COc1ccc(N(C)S(=O)(=O)c2cccc(C(=O)Nc3ccc(OC)nc3)c2)cc1 | 4.8 | 1 | 7% | -28 | 5
CSCCC(C(=O)OCC(=O)c1ccc(C)c(C)c1)N1C(=O)c2ccccc2C1=O (stereo not drawn) | 2.2 | 4 | -4% | -31 | 9
COc1ccc(NC(=S)N/N=C2/CCCc3c(C)cc(C)cc32)cc1 | 0.6 | -9 | 3% | -4 | -6
COc1cc(C(=O)NC(=S)Nc2ccccc2N2CCOCC2)cc(OC)c1OC | 6.6 | x | x | x | 23
C/C(=N/NC(=O)CN1CCN(S(=O)(=O)c2ccc(Br)cc2)CC1)c1cccnc1 | -0.6 | 1 | x | -7 | 5
Cc1ccc(-c2nn(CC(=O)N3CCOCC3)c(=O)c3ccccc23)cc1S(=O)(=O)N(C)C | -0.3 | x | -2% | x | -5

Other records follow:
SMILES | RecA splice inh | Arbovirus inh | Mtb growth | YopH PTP inh | Mtb bLac sens | others
Cc1ccc(NC(=O)c2ccc3snnc3c2)cc1 | 1.0 | 4 | -3% | x | 11
Nc1nonc1-n1nnc(C(=O)N/N=C/c2cccc(Cl)c2)c1-c1ccc2c(c1)OCO2 | -0.4 | x | x | x | 3
COc1c(C)cc(NC(=O)c2ccc3c(c2)NC(=O)CO3)cc1C | 11 | 1 | 0% | x | 15
CCOC(=O)C1(Cc2cccc(OC)c2)CCN(Cc2cccnc2)CC1 | -3.8 | 1 | -7% | x | -2
CCOC(=O)c1cc2ccc3ccccc3c2s1 | 4.9 | 7 | -2% | -23 | 92
CCOC(=O)C(CC)Sc1ccc2nnc(CCNS(=O)(=O)c3ccccc3)n2n1 (stereo not drawn) | 3.6 | 2 | 1% | x | -1
Cc1noc(C)c1COc1ccc(C(=O)Nc2ncccc2O)cc1 | -1.0 | x | x | x | -3
O=c1nc(Nc2ccc(OCc3ccccc3)cc2)sc2ncccc12 | -0.5 | 5 | 3% | x | -8
O=[N+]([O-])c1cc([N+](=O)[O-])c(Oc2cccnc2Br)cc1NN1CCCCC1 | 17 | x | x | x | 2
COc1ccc(NC(=O)NNC(=O)COc2cc(C)c(Cl)c(C)c2)c(OC)c1 | -1.9 | x | x | x | -12
O=C(CSc1ccc([N+](=O)[O-])cn1)Nc1ccc(N2CCOCC2)c(Cl)c1 | -2.8 | 6 | 58% | x | 93
CCCCn1c(=O)nc2n(-c3ccc(C)cc3)c3ccccc3cc-2c1=O | -20 | 4 | 4% | 13 | 4
O=C(Cc1ccccc1)Nc1nc(=O)c2ccccc2s1 | 2.1 | 3 | -10% | -34 | 2
Cc1ccccc1-c1cc(C(=O)N2CCCC2)c2ccccc2n1 | 1.2 | x | x | x | -13
CCOC(=O)c1sc2nc(SCC#N)n(CCCN3CCCC3=O)c(=O)c2c1C | -1.0 | -4 | 0% | -16 | -4
CCSc1n[nH]c(=O)[nH]c1=O | -1.3 | 1 | -9% | -4 | -1
COc1ccc(Cl)cc1N(CC(=O)NC(C(C)C)C(C)C)S(C)(=O)=O | -3.0 | 10 | 0% | -23 | 2
Cc1ccc2nc(-c3ccc4c(c3)OCCO4)cc(C(=O)O)c2c1 | 2.5 | 0 | 0% | -20 | 8
C/C(=N/NC(=O)CNS(=O)(=O)c1ccc(C)cc1)c1cccc([N+](=O)[O-])c1 | x | -8 | -3% | x | 6
CCNC(=O)COC(=O)/C=C/c1cccc(F)c1 | 0.1 | -1 | 0% | x | 0
Cc1cccc(NC(=S)NC23CN4CN(CN(C4)C2)C3)c1 | -1.8 | 1 | 7% | x | 2
CCOc1ccc(NC(=O)C(C)SC(N)=O)cc1 (stereo not drawn) | 9.0 | -4 | -6% | -45 | 14
CC1=NN(c2ccccc2)C(=O)C1/C=C1/C(=O)NC(=O)N(c2cccc(C)c2)C1=O (stereo not drawn) | x | 6 | -7% | -2 | x
Cc1ccc(C(=O)N/C(=C/c2ccc(-c3ccc(Br)cc3)o2)C(=O)NC2CCS(=O)(=O)C2)cc1 (stereo not drawn) | -6.3 | 4 | 2% | -29 | -1
O=C1/C(=C/c2ccc(C(=O)O)cc2)CCC/C1=C\c1ccc(C(=O)O)cc1 | 6.1 | 5 | -6% | 8 | 2

Next part, starting with the last 2 of the part before.
SMILES | RecA splice inh | Arbovirus inh | Mtb growth | YopH PTP inh | Mtb bLac sens | others
Cc1ccc(C(=O)N/C(=C/c2ccc(-c3ccc(Br)cc3)o2)C(=O)NC2CCS(=O)(=O)C2)cc1 (stereo not drawn) | -6.3 | 4 | 2% | -29 | -1
O=C1/C(=C/c2ccc(C(=O)O)cc2)CCC/C1=C\c1ccc(C(=O)O)cc1 | 6.1 | 5 | -6% | 8 | 2
Cc1ccsc1/C=C/c1ccc2cccc(O)c2n1 | -2.4 | -17 | u | -13 | 100
CN(C)c1ccc(/C=N/NC(=O)c2nnn(-c3nonc3N)c2CN(C)c2ccccc2)cc1 | -6.2 | x | x | x | -3
O=C(Nc1c(-c2ccccc2)nc2ccccn12)c1cccs1 | -1.8 | 39* | 4% | -21 | -3
CCCC(=O)NC(C)c1nc2ccccc2n1C(C)C (stereo not drawn) | -0.4 | -3 | -1% | -18 | 1 | Arbovirus inh repeat=1
Cc1cc(SCC(=O)N/N=C/c2ccc(O)c(O)c2O)c(C)cc1Br | 6.2 | -26 | -8% | -15 | 5
CCOC(=O)C1=C(CNC(C)(C)CC(C)(C)C)NC(=O)NC1c1cccc([N+](=O)[O-])c1 (stereo not drawn) | 3.5 | -35 | 8% | x | -4
CC(=O)Nc1ccc(NC(=O)CSc2nc3ccccc3nc2N2CCC(C)CC2)cc1 | -8.6 | x | x | x | 1
CCOC(=O)C1=C(C)NC(=O)C(C(N)=O)C12CCCCC2 (stereo not drawn) | 2.1 | 4 | -1% | -43 | -13
CCOC(=O)C1CCCN(c2cc(=O)n(-c3ccccc3Cl)c(=O)[nH]2)C1 (stereo not drawn) | 6.4 | 0 | -1% | -20 | -3 | Arbovirus inh repeat=-1
COCCn1c(C)cc(C2=NNC(=Nc3ccc(F)cc3)SC2)c1C | 4.1 | -1 | -4% | -6 | 1
CCN1CCc2c(OCc3ccc(C(=O)OC)o3)cccc2C1=O | 1.6 | -1 | -7% | x | 3
